Yeast UUG start = yeast start codon fidelity modulation; S. cerevisiae UUG-firefly luciferase reporter, luminescence/redox ratio; activity score, % at 18.7 µM; hit rate 0.13% among 350,000; AID 602363;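 active = replicate mean at a twofold rise or more, about +100% in these data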;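 note: firefly luciferase made from a UUG start codon reports start codon fidelity; reporter light over untreated wells divided by growth signal over untreated wells; some hits fall short of that in this replicate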
PABP polyA inh = blocks human PABP binding to poly(A) RNA; inhibition, % at 35 µM; P11940; hit rate 1% among 290,000; fluorescence polarization;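 active = 50% or more with normal probe brightness, or confirmed in later tests; inconclusive = above 50% with abnormal brightness, or retests that disagree; inactive = below 50% or failed in later tests; about a fifth of its hits are not listed in these tables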;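 note: calls also rest on retests at 20 µM and on dose response follow-up; controls were probe without protein and protein plus probe with vehicle; some compounds called inactive have numbers as strong as hits; many hits fall short of the cut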
Target sequence (P11940 whole entry, looked up): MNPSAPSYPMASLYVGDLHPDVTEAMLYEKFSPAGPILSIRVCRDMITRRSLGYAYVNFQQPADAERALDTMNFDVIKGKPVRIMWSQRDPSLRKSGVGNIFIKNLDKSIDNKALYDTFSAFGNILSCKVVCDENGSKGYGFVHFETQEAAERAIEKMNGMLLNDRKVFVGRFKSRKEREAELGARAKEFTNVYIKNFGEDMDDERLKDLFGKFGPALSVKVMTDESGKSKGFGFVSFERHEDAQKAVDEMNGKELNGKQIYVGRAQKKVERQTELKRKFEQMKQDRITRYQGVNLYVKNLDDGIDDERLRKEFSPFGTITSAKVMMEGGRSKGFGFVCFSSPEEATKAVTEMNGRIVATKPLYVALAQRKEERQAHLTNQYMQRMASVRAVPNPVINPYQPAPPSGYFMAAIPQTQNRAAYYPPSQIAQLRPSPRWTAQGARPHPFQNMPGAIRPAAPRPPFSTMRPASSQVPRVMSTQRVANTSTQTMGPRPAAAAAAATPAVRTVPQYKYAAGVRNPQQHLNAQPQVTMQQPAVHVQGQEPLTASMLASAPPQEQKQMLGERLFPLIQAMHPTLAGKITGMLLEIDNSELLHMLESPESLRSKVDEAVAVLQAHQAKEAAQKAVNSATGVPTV
Rce1 inh = inhibitors of yeast Ras-converting enzyme. Q03530. yeast membranes, quenched prenylated peptide cleavage fluorescence. calls only. hit rate 0.27% among 290,000. AID 2563;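 active = fall in fluorescence gain of 50% or more versus controls, with final raw signal at or below 3038400; inconclusive = same 50% fall but final raw signal above 3038400; inactive = fall in fluorescence gain under 50%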;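 note: plate controls were neutral control wells for no effect and wells lacking membranes for full effect; tested at 10 µM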
Target sequence (Q03530 whole entry, looked up): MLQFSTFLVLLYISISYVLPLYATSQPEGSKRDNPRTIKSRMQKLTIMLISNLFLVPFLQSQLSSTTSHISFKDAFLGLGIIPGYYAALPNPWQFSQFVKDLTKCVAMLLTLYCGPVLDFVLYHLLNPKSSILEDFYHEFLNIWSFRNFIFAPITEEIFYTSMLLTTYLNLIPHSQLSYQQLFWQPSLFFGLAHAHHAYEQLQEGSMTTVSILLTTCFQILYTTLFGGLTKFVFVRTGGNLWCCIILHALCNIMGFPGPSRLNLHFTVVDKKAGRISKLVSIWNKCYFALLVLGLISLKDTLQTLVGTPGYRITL
Env fusion inh = blocks HIV Env-driven cell-cell fusion. AID 651610. hit rate 1.1% among 360,000. inhibition, % at 12.3 µM. HeLa-JRFL Env/CEM21 cell fusion, luciferase;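 active = mean replicate inhibition score of at least 50 and every replicate individually at or above 50; inconclusive = only one of the two criteria met; inactive = mean below 50 and not all replicates reaching 50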;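 note: 0% = plate neutral controls and 100% = maraviroc near 300 nM; one replicate is shown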
MT1-MMP act inh = MT1-MMP (human) activation inhibition | P50281 | HT1080 RFP-PRO-GFP cells, GFP/RFP ratio fluorescence, overnight; percent of plate control window, DMSO zero | GFP/RFP ratio change, % at 20 µM | hit rate 0.061% among 360,000;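 active = GFP/RFP ratio change of at least 30% with cell ATP level not reduced by more than half and red fluorescence within 50% of control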; note: strong numbers were not always called active
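Material: RFP-PRO-GFP reporter HT1080 cells. Dosing: single-point 20 µM compound, 1% DMSO. Controls: DMSO and RFP-L50D-GFP cell wells. Timing: cells overnight before dosing, compound overnight, 37 °C, 5% CO2. Measure: GFP/RFP fluorescence ratio.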
CSC inhib = cancer stem cell inhibition. cancer stem cell-like cells viability, luminescence. inhibition, % at 7.5 µM. hit rate 1.1% among 300,000. AID 2717;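 active = mean at 75% or more and at least half the replicates too; inconclusive = mean and replicates disagree; tested in HMLE shEcad cells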;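 note: 0% = median of negative and 100% = median of positive control wells; the first replicate is given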
eIF4H inh = inhibitors of RNA binding by human eIF4H. Q15056. eIF4H fluorescence polarization binding assay. inhibition, % at 35 µM. hit rate 0.94% among 290,000. AID 2012;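 active = 50% or more with normal probe brightness, or confirmed in later tests; inconclusive = above 50% with abnormal brightness, or retests that disagree; inactive = below 50% or failed in later tests; about a fifth of its hits are not listed in these tables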;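 note: calls also rest on retests at 20 µM and on dose response follow-up; 0% = protein and probe with vehicle and 100% = probe without protein; strong numbers were not always called active; many hits fall short of the cut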
eIF4H inh retest = recorded beside eIF4H inh, whose call it bears; inhibition, %; compound at 20 µM; confirmation average;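 mean of two retest wells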
PABP polyA inh retest = also measured in PABP polyA inh; calls as there; inhibition, %; compound at 20 µM; confirmation repeats;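 mean of two retest wells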
MT1-MMP act inh RFP = further read-out of MT1-MMP act inh, marked with its call; RFP signal change, %; measured here: RFP expression control read;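 0 = vehicle wells; hits needed this value within 50% of zero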
An asterisk follows results filed as active; i = inactive; ? = inconclusive; nt = not tested or not shown; & = joins results of further samples. This is a subset (hit frequency here may not be typical).

Start of the listing, in advance (three entries):
SMILES	Yeast UUG start	PABP polyA inh	Rce1 inh	Env fusion inh	MT1-MMP act inh	MT1-MMP act inh RFP	CSC inhib	eIF4H inh	others
CC(C)C(=O)NC(=S)Nc1c(Cl)ccc2nsnc12	-13	73*	i	-5	-2	5	-5	79*
COCCN(C(=O)CSc1nc2ccc(C)cc2[nH]1)c1c(N)n(Cc2ccccc2)c(=O)[nH]c1=O	nt	-4	i	13	0	1	-11	6
Cc1ccc(S(=O)(=O)CCC(=O)N2CCN(c3ccc(Cl)cc3)CC2)cc1	5	-13	i	nt	13	-12	-6	-16

All compounds of this part, from the start:
SMILES	Yeast UUG start	PABP polyA inh	Rce1 inh	Env fusion inh	MT1-MMP act inh	MT1-MMP act inh RFP	CSC inhib	eIF4H inh	others
CC(C)C(=O)NC(=S)Nc1c(Cl)ccc2nsnc12	-13	73*	i	-5	-2	5	-5	79*
COCCN(C(=O)CSc1nc2ccc(C)cc2[nH]1)c1c(N)n(Cc2ccccc2)c(=O)[nH]c1=O	nt	-4	i	13	0	1	-11	6
Cc1ccc(S(=O)(=O)CCC(=O)N2CCN(c3ccc(Cl)cc3)CC2)cc1	5	-13	i	nt	13	-12	-6	-16
O=C(O)Cc1sc(Nc2cccc3ccccc23)nc1-c1ccc(Cl)cc1	2	-8	i	4	4	8	29	19
CCOc1cc(-c2nc3n(c(=O)c2C#N)CCS3)ccc1O	0	-14	i	-22	-75	2	-1	-10
Nc1ccc(Cl)c(S(=O)(=O)Nc2cccc(Cl)c2)c1	nt	0	i	7	-3	0	-15	-2
COc1ccccc1C(=O)N/C(=C\c1cn(S(=O)(=O)N(C)C)c2ccccc12)C(=O)N1CCOCC1	-17	nt	i	14	-1	1	-19	nt
CCOC(=O)c1ccc(CC2SC(N)=NC2=O)cc1 (stereo not drawn)	5	-1	i	12	2	4	6	-16
Cc1cc2c([nH]c3ccccc32)c2c1OC(C)(C)C=C2	-14	-3	i	nt	1	-2	12	7
COc1ccccc1CNC(=O)C1CCN(S(=O)(=O)c2ccc3c(c2)C(C)(C)C(=O)N3C)CC1	-25	-3	i	-23	3	4	-1	1
COC(=O)C1=C(N)OC2=C(C(=O)CC(C)(C)C2)C1c1cc2c(cc1Cl)OCO2 (stereo not drawn)	1	3	i	-1	-2	2	10	-2
Cc1ccc(-c2cc(-c3ccccc3)no2)c(O)c1	-19	6	i	-320	-3	0	13	-9
CCOc1ccc2cc(C(=O)NCc3ccccc3)c(=N)oc2c1	-31	0	i	-9	1	2	9	-2
Cc1cc(F)ccc1S(=O)(=O)N1CCCOC1CNC(=O)C(=O)NCCN1CCOCC1 (stereo not drawn)	-2	-3	i	2	-4	-2	-3	-4
COc1cc(OC)cc(C(=O)NC2CCN(CCCOc3ccccc3)CC2)c1	-19	-7	i	18	3	1	2	-8
CCOc1ccc(C(CC(=O)O)NC(=O)C23CC4CC(CC(C4)C2)C3)cc1 (stereo not drawn)	-8	4	i	-52	7	6	-7	0
CC(=O)/C=C\c1cn(-c2ncc(C(F)(F)F)cc2Cl)c2ccccc12	nt	-3	i	nt	-9	-14	nt	-4
Cc1cc2c(c(=O)n1CC1CCCO1)C(c1ccco1)C(C#N)=C(N)O2 (stereo not drawn)	-10	?	i	-30	2	11	-7	?
Cn1c2c(c(=O)n(C)c1=O)C(C(F)(F)F)(C(F)(F)F)N=C(c1ccc(Cl)cc1)N2	-12	6	i	nt	-30	-31	nt	-1
CC(=O)C[C@@H](O)CC(=O)[C@@H]1OC(=O)CCCCCCCCc2ccccc21	18	nt	nt	-12	-5	0	nt	nt
CO/N=C(\Cn1ncc(N2CCOCC2)c(Br)c1=O)c1ccc(Cl)cc1	nt	-3	i	21	-1	1	-5	2
CN(c1ccccc1)S(=O)(=O)c1ccc(NC(=O)C2CC2)cc1	5	-9	i	-25	-1	-2	-4	-9
CCOc1cccc2sc(N(CCCN(C)C)C(=O)Cc3ccccc3)nc12	-17	-4	i	-2	4	4	-11	4
O=C(O)c1ccccc1NS(=O)(=O)c1cccc(-n2sc3ccccc3c2=O)c1	16	59*	i	2	-3	2	35	47*	eIF4H inh retest=93*;PABP polyA inh retest=82*
CCCCOCCCNC(=O)C1CCCCC1	-12	-3	nt	nt	9	4	1	-4
COc1cc(/C=C2\SC(=N)N(c3ccc(F)cc3)C2=O)ccc1O	nt	11	nt	-12	-72	-9	-5	-4
C=CCNc1nc(N)c([N+](=O)[O-])c(NCc2ccccc2)n1	nt	-6	i	nt	9	7	5	-2
CCCOc1ccc(OCCOCCN2CCc3ccccc3C2)cc1	-13	-4	i	28	0	-5	26	4
C/C=C/C=C/C(=O)O	-11	nt	nt	nt	-1	6	-9	nt
CCOc1ccccc1/C=N/NC(=O)CNC(=O)c1ccc(S(=O)(=O)N2CCOCC2)cc1	4	-13	i	0	5	7	-7	-1
O=C(N/N=C/c1cc2c(cc1Cl)OCO2)c1cccc(Br)c1	-14	9	i	-237	4	6	-5	-16
Cc1nc2scc(C)n2c(=O)c1S(=O)(=O)NC(C)c1ccccc1 (stereo not drawn)	-16	9	i	-8	0	2	-27	2
Cc1ccc(CN2CCC(C)(Oc3ccc(Cl)cc3)C2)cc1 (stereo not drawn)	-17	nt	nt	31	2	4	nt	nt
CCOc1ccc(/C=C2\SC(=S)N(N3C(=O)C4CC4C3=O)C2=O)cc1 (stereo not drawn)	nt	4	i	-10	3	6	8	-8
CCOC(=O)Cc1nnn(CC(=O)OCC)n1	-12	1	i	nt	5	0	-6	6
C[N+]1(C2CCC3CCCC2C3O)CCCCC1 (stereo not drawn)	1	47	i	-26	1	2	nt	12
CC(C)NC(=O)C(C)Oc1ccc(S(=O)(=O)NCc2ccc3c(c2)OCO3)cc1 (stereo not drawn)	3	-4	i	-1	-3	-4	-17	-7
CCOC(=O)c1ccc(NC=C2C(=O)OC3(CCCCC3)OC2=O)cc1	-21	3	i	nt	5	4	-4	9
Cc1cnc(C(=O)OC(C(=O)c2c[nH]c3ccccc23)c2ccccc2)cn1 (stereo not drawn)	9	nt	nt	3	-2	-2	12	nt
COc1ccccc1N1CCN(C(=O)Nc2ccc(F)c(Cl)c2)CC1	nt	-5	i	8	2	-1	-5	-12
Cn1cc(CCC(=O)NCCCc2ccccc2)c2ccccc21	-3	-3	i	12	3	6	-7	4
O=C(CCC(=O)N/N=C/c1ccc(Br)o1)N/N=C/c1ccc(Br)o1	nt	18	i	-1	2	6	-3	9
COc1ccc(N(CC(=O)NCCSc2ccccc2)S(C)(=O)=O)cc1	0	-2	i	14	-4	-4	-10	-5
CCn1cc(CN2CCC(n3nccc3NC(=O)CCc3ccccc3)CC2)cn1	-11	-6	i	21	-2	4	8	15
N#C/C(C(=O)c1ccccc1)=C1/CCCCCN1	-12	1	i	-77	4	9	-13	-5
Cc1ccc(-n2nc(-c3ccccc3)cc2Nc2ccccc2N)cc1	nt	-7	i	9	-4	-5	nt	4
CC1=NN(c2cccc(Cl)c2)C(=O)C1	-14	20	i	10	0	2	24	3
CC(=O)Oc1ccc(NC(=O)C2CCCCC2)c(C(=O)O)c1	-24	10	i	7	3	6	-10	9
Cc1ccc(NC(=S)c2ccncc2)c(C)c1	-7	3	i	13	-1	-3	-13	3
C[c-]1[c-](C)[c-](C)[c-](C)[c-]1C.[Fe].c1cc2nccc(N3CCCC3)[c-]2c1 (stereo not drawn)	11&-36	129*	i	-59&-26	-14&-4	4&7	-8&-4	104*
COC(C(=O)N/N=C(\C)c1ccc(O)cc1)c1ccccc1 (stereo not drawn)	-8	6	nt	0	2	1	-7	-2
CCCOC(c1ccccc1)(c1ccccc1)C(Oc1nc(C)cc(C)n1)C(=O)O (stereo not drawn)	-8	-9	i	11	-5	1	-1	-12
NC(=O)c1ccc(NC(=O)CN2CCOCC2)cc1	14	-13	i	0	4	-3	-10	-8
COc1cc(/C=N/NC(=O)c2cccnc2)ccc1OC(=O)c1ccc([N+](=O)[O-])cc1	nt	-8	i	2	-3	0	1	32
Cc1cc(OCC(=O)NC2CCN(Cc3ccccc3)CC2)c2c(C)cc(=O)oc2c1	-10	3	i	-9	0	-1	-18	-5
Cc1cc(C)c(C#N)c(Oc2ccc(F)cc2)n1	nt	-3	i	nt	3	3	-4	-4
CCOC(=O)c1ccc(-n2c(=O)[nH]c3ccccc3c2=O)cc1	-10	-3	i	-125	3	2	-9	1
O=C(Nc1ccc(F)cc1)N(Cc1cccs1)Cc1cc2cc3c(cc2[nH]c1=O)OCO3	nt	-4	i	-164	-3	-13	nt	-7
COC[C@H]1CCCN1[C@@H]1CS(=O)(=O)N[C@H]1COCc1ccccc1	-16	nt	nt	5	-2	1	nt	nt
O=S1(=O)CCOC[C@H](CC2CCCCC2)N1Cc1ccc(Cl)cc1	-5	13	i	36	-4	-7	-6	-10
The list continues:
SMILES	Yeast UUG start	PABP polyA inh	Rce1 inh	Env fusion inh	MT1-MMP act inh	MT1-MMP act inh RFP	CSC inhib	eIF4H inh	others
COc1ccc(CCC(=O)N2CCCC(Nc3ccc(C)c(C)c3)C2)cc1OC (stereo not drawn)	12	-4	i	12	-1	1	17	-12
Cc1c(C(=O)O)oc2c1ccc1ccccc12	-17	14	i	-3	1	0	-15	2
CC(C)(C)c1ccc(OCCCC(=O)NNC(=O)c2ccccc2O)cc1	0	nt	i	16	2	-4	32	nt
N#CCCn1cc(/C=C(\C#N)c2nc3ccccc3s2)c(-c2ccc(F)cc2)n1	-34	2	i	-72	nt	nt	1	3
O=C(Nc1ccc(Cl)c([N+](=O)[O-])c1)c1ccncc1	nt	-8	i	-66	7	1	-15	3
Cn1ncc(C#N)c1/N=C/N(Cc1ccccc1)Cc1ccccc1	-18	-3	i	nt	-4	-20	4	-6
CC(OC(=O)C1CCC1)C(=O)Nc1cc(Cl)cc(Cl)c1 (stereo not drawn)	-20	nt	i	2	5	-3	0	nt
Cc1cc(=O)n2nc(N3CCCC(C(=O)NCCC4=CCCCC4)C3)sc2n1 (stereo not drawn)	6	8	i	nt	2	5	12	2
CC(=O)Nc1nonc1NC(=O)COc1ccccc1	nt	7	i	10	-3	-2	-6	-3
CC(=O)C1=C(C)NC(=O)NC1c1ccccc1 (stereo not drawn)	-14	3	i	-49	-4	2	-19	0
Cc1cccc(NC(=O)Cc2coc3ccc4ccccc4c23)n1	-15	12	i	nt	-11	-8	22	9
O=C(c1ccc(S(=O)(=O)Nc2ccccc2F)cc1)N1CCN(c2ccccc2O)CC1	-8	nt	i	7	1	1	9	nt
CCc1nnc(NS(=O)(=O)c2ccc(NC(=S)NC(=O)c3ccc(Br)cc3)cc2)s1	nt	-8	i	-14	1	2	-7	5
Cc1cc(NC(=O)CCC2CCCCC2)no1	nt	14	i	-66	-3	-1	9	-1
COc1ccccc1N1CC(C(=O)Nc2nnc(SCc3cccnc3)s2)CC1=O (stereo not drawn)	-13	17	i	-9	1	5	-16	-6
Cc1cccc(C(=O)NC(=S)NNC(=O)c2ccccc2Cl)c1	nt	4	i	9	6	5	12	7
Brc1ccc(CSc2nnc(-c3ccccn3)n2Cc2ccco2)cc1	-3	-4	i	40	-2	-14	50	0
COc1cc(NC(=O)c2ccc(Br)cc2)ccc1NC(=O)c1cc2ccccc2o1	9	2	i	-3	5	6	1	-11
CN1CCN(C(=O)c2ccc(CNS(=O)(=O)c3ccc(F)c(Cl)c3)cc2)CC1	-13	2	i	-10	-2	0	-2	-2
CCOC(=O)c1ccc(NC(=O)CCOc2ccccc2)cc1	nt	3	i	nt	7	7	1	-5

Compound activity from PubChem BioAssay.
